# VDR inhibitor – vitamin D3 receptor (human) inhibition. VDR-SRC2-3 peptide fluorescence polarization, 2 h. 0.93% of 400,000 active. P11473. Potency, µM, without a hit: max response, negative = inhibition, most hits filed as inhibitors. AID 504847; active = well fitted inhibition curve with a large enough effect; inconclusive = small, poorly fitted or top-dose-only effect, or another doubt; inactive = no such curve, though single readings can be large or run the other way; note: series mostly up to about 120 µM
# Target sequence (P11473 whole entry, looked up): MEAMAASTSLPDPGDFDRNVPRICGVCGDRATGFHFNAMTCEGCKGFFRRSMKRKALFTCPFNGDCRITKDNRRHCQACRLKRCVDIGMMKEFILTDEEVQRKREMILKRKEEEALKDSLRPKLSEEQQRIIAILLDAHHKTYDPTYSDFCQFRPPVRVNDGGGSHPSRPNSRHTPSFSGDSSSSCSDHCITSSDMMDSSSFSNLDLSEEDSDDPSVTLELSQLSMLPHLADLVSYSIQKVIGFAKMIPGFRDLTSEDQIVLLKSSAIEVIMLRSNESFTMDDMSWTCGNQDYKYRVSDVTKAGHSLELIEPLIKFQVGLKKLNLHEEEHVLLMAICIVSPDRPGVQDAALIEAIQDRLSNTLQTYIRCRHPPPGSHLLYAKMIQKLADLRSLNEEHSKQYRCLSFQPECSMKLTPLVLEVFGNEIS
#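 VDR–SRC2-3 interaction, FP format. Cmpds 23 nl via pintool, brief spin, 2 h ambient incubation.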
# * hit, by the source's call; ? = inconclusive; & = joins results of further samples; [ ] = remark or other dose. % is set by controls: 0 for no effect and ±100 for the full control effect; potency is the fitted concentration of half-maximal effect. An excerpt (hit frequency here may not be typical).
SMILES,VDR inhibitor
O=C(NCCCn1ccnc1)c1ccc(Br)s1,8.5%
O=C(c1ccc(-c2cc(Cl)ccc2Cl)o1)N1CCOCC1,-4.4%
Cc1cccc(NC(=O)CN2CCN(C(=O)C3CCN(C(=O)/C=C/c4ccccc4)CC3)CC2)c1C,16.4%
CC/C=C\C/C=C\C/C=C\C/C=C\C/C=C\C/C=C\CCC(N)=O,-0.2%
N#CC1(NC(=O)COC(=O)c2cc([N+](=O)[O-])ccc2N2CCOCC2)CCCCC1,-8.0%
COc1ccc(NC(=O)CN2C(=O)C(c3ccccc3)=NC23CCCCCC3)cc1,-22.5%
CC(=O)Nc1ccc(NC(=O)CCn2nnc3ccccc32)cc1,?
CCO[C@H]1OC(C(=O)NCc2ccccc2)=C[C@@H](c2ccc3c(c2)OCO3)[C@@H]1CCCO,-23.2%
Cc1cc(C)n(CC(O)COc2ccc3ccccc3c2)n1 (stereo not drawn),-1.9%
Cc1cccc(NS(=O)(=O)c2c(C)nc3scc(C)n3c2=O)c1,-1.0%
COC(=O)c1ccc(OCCn2cnc3ccccc3c2=O)cc1,9.6%
CCc1cccc(NC(=O)Nc2ccc3c(c2)N(C)C(=O)c2ccccc2S3)c1,-2.8%
O=[N+]([O-])/C(C(=C(Cl)Cl)N1CCOCC1)=C1\NCCO1,-6.3%
O=C(Cc1cccc(C(F)(F)F)c1)NCC(c1ccco1)N1CCCCC1 (stereo not drawn),17.5%
O=c1cccc2n1Cc1cc3ccccc3nc1-2,-2.3%
Clc1ccc(C(c2ccccc2)N2CCNCC2)cc1 (stereo not drawn),-5.9%
CC1CCc2sc(NC(=O)C3CC(Cl)=CCC3C(=O)O)c(C#N)c2C1 (stereo not drawn),16.7%
Cc1ccc(NC(=O)c2ccc(NC(=O)N3CCSc4ncccc43)cc2)cc1Cl,8.9%
CN(C)c1c(F)cc(-c2nn[nH]n2)cc1F,-7.5%
CCOC(=O)n1c(=O)n(C)c2ccc(Cl)cc21,?
N=C1C(c2nc(-c3cccc([N+](=O)[O-])c3)cs2)=C(O)CN1NC(=O)c1ccco1,13.8%
O=S(=O)(NCC(c1cccnc1)N1CCN(Cc2ccccc2)CC1)c1cc(F)ccc1F (stereo not drawn),15.5%
CCOC(=O)N1CCN(S(=O)(=O)c2cccc3ccc(C)nc23)CC1,8.6%
Cc1cc(NC(=O)CCC(=O)N(CC(=O)NCC2CCCO2)c2ccc3c(c2)OCCO3)no1 (stereo not drawn),9.7%
COc1cc2c(cc1NC(=O)C(C)Sc1ccc(NC(C)=O)cc1)oc1ccccc12 (stereo not drawn),-7.4%
O=C(CSc1nccc(=O)[nH]1)NC1CCCCCC1,5.8%
COc1ccccc1-n1cnc2c(c1=O)c1nc3ccccc3nc1n2CCc1ccccc1,-13.3%
Cc1cc(S(=O)(=O)n2cnc3cc([N+](=O)[O-])ccc32)ccc1Cl,-10.4%
CN(C)c1cccc(C(=O)Nc2cc(C(F)(F)F)ccc2-n2cnc3ccccc32)c1,-26.4%
Cc1nc(SCC(=O)NCCc2ccc(Cl)cc2)nc(C)c1C,9.7%
CC(=O)Nc1ccc(NC(=O)C(C)Sc2nnc(C3CC3)n2-c2ccccc2)cc1 (stereo not drawn),-2.4%
CCOc1ccc(C(=O)Nc2nnc(SCC(=O)NCC3CCCO3)s2)cc1OCC (stereo not drawn),-21.3%
Cc1nn(-c2ccccc2)c2sc(-c3n[nH]c(=S)o3)cc12,?
Cc1nn(CC(=O)OCC(=O)Nc2ccccc2[N+](=O)[O-])c(C)c1[N+](=O)[O-],-10.1%
CCCn1nc2cc(C(=O)NC3CCCc4ccccc43)ccc2c1OCC (stereo not drawn),-9.1%
O=C(/C=C/c1ccc(Cl)cc1Cl)NC(=S)Nc1ccccn1,2.1%
O=C(CCl)NCc1c(Cl)cccc1-n1cccc1,-3.6%
COc1ccc(C2N(c3ccc(OC)cc3)C(=O)C3CCCN32)cc1 (stereo not drawn),-4.9%
CC(c1ccccc1)N(NC(=O)C(O)(c1ccccc1)c1ccccc1)C(=O)c1ccccc1 (stereo not drawn),-17.0%
COc1ccc(OC)c(C2=Nn3c(nnc3C3CCCCC3)SC2)c1,?

# Given with each value named: 4 of the compounds above.
smiles: Cc1nn(CC(=O)OCC(=O)Nc2ccccc2[N+](=O)[O-])c(C)c1[N+](=O)[O-]
  VDR inhibitor: -10.1%

smiles: CCCn1nc2cc(C(=O)NC3CCCc4ccccc43)ccc2c1OCC (stereo not drawn)
  VDR inhibitor: -9.1%

smiles: O=C(/C=C/c1ccc(Cl)cc1Cl)NC(=S)Nc1ccccn1
  VDR inhibitor: 2.1%

smiles: O=C(CCl)NCc1c(Cl)cccc1-n1cccc1
  VDR inhibitor: -3.6%

# More records
SMILES,VDR inhibitor
O=C(O)c1cccc2c1C(=O)c1ccc(-c3ccc(OC(F)(F)F)cc3)cc1S2(=O)=O,-21.0%
OCCCNc1ncnc2c1[nH]c1ccccc12,-7.0%
Cc1ccc(S(=O)(=O)N(C)C)cc1NC(=O)c1cccs1,-6.4%
CN(C)S(=O)(=O)c1cccc(NC(=O)CCCC2CCCCC2)c1,-1.6%
CCCCN(C)CCCNC(=O)CN1C(=O)COc2ccc(S(=O)(=O)N3CCC(C)CC3)cc21,2.0%
Cc1nn(C)cc1C(C)Nc1nc2nonc2nc1N1CCCCC1 (stereo not drawn),8.2%
CCN(CC)c1nc2n(c(=O)n1)CCO2,7.5%
Cc1ccc2nc(NC(=O)CCCc3nc4ccccc4s3)sc2c1,-28.7%
Cc1ccc(OCC(=O)N2CCCCC2)c(Br)c1,7.8%
CN1CCC(NC(=O)Nc2ccc(Br)cc2)CC1,-16.9%
CC(=O)c1ccc(-c2c(C3C4C=CCCC4(C)C(=O)N3Cc3ccccc3)ccc3ccccc23)cc1 (stereo not drawn),-14.6%
Cc1c(C#N)c(N)nc(Cl)c1C#N,0.4%
Cc1ccc([N+](=O)[O-])cc1N,-12.5%
CC(=O)Nc1cccc(Nc2nc(-c3ccccc3)nc3ccccc23)c1,-15.0%
CCC(=O)N1CCN(c2ccc(NC(=O)COc3ccc(CC)cc3)cc2)CC1,-10.6%
N#Cc1nc(-c2ccc(OCc3ccc(Cl)cc3)cc2)oc1N1CCCCCC1,117.3%[activator]
CCN(CC)c1ccc(/C=N/NS(=O)(=O)c2ccc(C)c([N+](=O)[O-])c2)cc1,4.7%
COc1ccc(CCN2CC(C(=O)N(C)Cc3ccccc3OC)CCC2=O)cc1 (stereo not drawn),-3.2%
CC1CCN(c2ccc([N+](=O)[O-])cc2C(N)=O)CC1,7.5%
O=C(Cc1cccs1)OCC(=O)c1ccco1,17.4%

# Some of these compounds in order of the VDR inhibitor value, smallest number first:
mol	VDR inhibitor
O=C(O)c1cccc2c1C(=O)c1ccc(-c3ccc(OC(F)(F)F)cc3)cc1S2(=O)=O	-21.0%
OCCCNc1ncnc2c1[nH]c1ccccc12	-7.0%
O=C(Cc1cccs1)OCC(=O)c1ccco1	17.4%

# Other results.
SMILES,VDR inhibitor
C/C(=N/NC(=O)C1CCCN1C(=O)c1ccc([N+](=O)[O-])cc1)c1ccc(Br)cc1 (stereo not drawn),7.0%
COc1ccc(C(C(=O)NC2CCCC2)N(Cc2ccccc2)C(=O)c2nsc(Cl)c2Cl)cc1 (stereo not drawn),-16.4%
CCN(CC)c1ccc(NC(=S)NCC2CCCO2)cc1 (stereo not drawn),?
CCOc1cc(NC(=S)Nc2ccc(Cl)cc2)c(OCC)cc1NC(C)=O,?
Oc1c(Br)cc(Br)cc1/C=N/Nc1ccc(Cl)nn1,-12.7%
CSCCNCc1c(C(=O)N2CCOCC2)nc2c(C)cccn12,-15.6%
CCOc1ccc(CNCCSc2nnnn2C)cc1,8.3%
C=CCn1c(SCC(=O)c2[nH]c(C)c(C(=O)OCC)c2C)nc2scc(-c3ccccc3)c2c1=O,-10.5%
COc1ccc(Cl)cc1NC(=O)C(=O)NCc1ccncc1,17.4%
O=C(c1ccc(Br)o1)N1CCN=C1SCc1cccnc1,-22.1%
CC(C)c1cc(CNC(=O)CCc2nnc(CCCCc3ccccc3)o2)on1,-11.3%
COc1ccc(-c2ccc(=O)n(CC(=O)NCCc3ccccc3)n2)cc1,-1.9%
O=C1CN(C(=O)COc2c(Cl)cccc2Cl)c2ccccc2N1,-5.6%
N/C(=N\OC(=O)Cc1ccc(-c2ccccc2)cc1)c1ccccn1,11.8%
CC(=O)c1c(C)[nH]c(C(=O)N2CCN(S(=O)(=O)c3ccc(F)c(F)c3)CC2)c1C,?
Cn1c(=O)n(C)c2cc(S(=O)(=O)NCc3ccco3)ccc21,13.3%
Cc1ccc(-n2nc(C)c(C3(O)C(=O)N(C)c4ccccc43)c2N)cc1 (stereo not drawn),15.7%
COc1ccc(OC)c(NC(=O)CCNS(=O)(=O)c2ccc3c(c2)c(=O)n(C)c(=O)n3C)c1,5.4%
COC(=O)c1sc(N2C(=O)C(O)=C(C(=O)c3ccc(C)o3)C2c2ccc(F)cc2)nc1C (stereo not drawn),-8.4%
CC(=O)C1=C(C)OC(N)=C(C#N)C1c1cc2cc(C)c(C)cc2nc1Cl (stereo not drawn),9.4%
Cc1noc(C)c1C(=O)OC(C)C(=O)N1CCc2ccccc21 (stereo not drawn),-8.7%
Cn1cccc1Cc1nnc(SCC(=O)NCCc2ccccc2)n1C,-14.4%
Cc1ccc(OCc2ccc(C(=O)Nc3ccc(C(N)=O)cc3)o2)c([N+](=O)[O-])c1,-1.6%
COc1ccc(NC(=O)C2CC3C=CC2C3)c([N+](=O)[O-])c1 (stereo not drawn),-17.8%
C[C@H](NS(=O)(=O)c1ccc(Cl)cc1)C(=O)OCC(=O)N1CCOCC1,-11.1%
Cc1cc(C(=O)NC2CCCC(C)C2C)c2ccccc2n1 (stereo not drawn),-14.0%
N/C(=N\OC(=O)c1cccc(F)c1)c1cccc([N+](=O)[O-])c1,-7.4%
CC(C)Cn1c(N)c(C(=O)COC(=O)C2CCCN2C(=O)c2cccs2)c(=O)n(C)c1=O (stereo not drawn),-17.7%
CN(C)C(=O)Nc1cnc2ccccc2c1,-8.8%
CCCCCOc1ccc(C2C(C(C)=O)=C(C)Nc3ncnn32)cc1OC (stereo not drawn),-7.9%
Cc1ccccc1CNC(=O)C(=O)NCC1CCCN1S(=O)(=O)c1ccccc1 (stereo not drawn),-5.6%
O=C(Cc1ccccc1)Nc1ccc(-c2nnc(-c3ccco3)o2)cc1,1.2%
COC(=O)[C@@H]1C[C@H]2CC[C@H](O)C[C@H]2N1Cc1ccc(C(F)(F)F)cc1,13.7%
Cc1ccc(C)c(NC(=O)Cn2c(=O)n(Cc3ccc4c(c3)OCO4)c(=O)c3oc4ccccc4c32)c1,-4.7%
CCN(CC)c1ccc(NC(=O)COC(=O)C2CCN(c3ccc(C(F)(F)F)cn3)CC2)cc1,-16.2%
Cc1cc(C)c(NC(=O)C2CCCN(S(=O)(=O)c3c(C)noc3C)C2)c(C)c1 (stereo not drawn),-23.7%
Cn1ccnc1SCC(=O)Nc1cc(Cl)ccc1Cl,6.9%
CC(C)CC(C)c1cc(N)nc2nc3ccccc3n12 (stereo not drawn),1.7%
S=C(NN=Cc1ccccn1)N(Cc1ccccn1)Cc1ccccn1,-0.7%
CC(NC1=CC(=O)c2cccnc2C1=O)C(O)c1ccccc1 (stereo not drawn),?
O=C(Nc1ccc(C(=O)N2CCOCC2)cc1)C1CCCC1,-16.6%
Cc1ccc(C)c(N2CCN(C(=O)CN3C(=O)COc4ccc(S(=O)(=O)N5CCCC5)cc43)CC2)c1,0.0%
CCOC(=O)c1c(-c2cccs2)csc1NC(=O)CN(CC)CC,-10.1%
CCOC(=O)CNc1nc(C(C)(C)C)nc2c1nnn2Cc1ccccc1,?
Cc1ccc(-c2nn(C)c(=O)c3ccccc23)cc1S(=O)(=O)N1CCCC1,7.1%
COc1ccc(-n2c(SCCC(C)C)nc3sc4c(c3c2=O)CC(C(C)C)OC4)cc1 (stereo not drawn),9.8%
CCOC(=O)Cc1csc(NC(=O)CN2CCCCC2)n1,-1.9%
CCC(Oc1cc(Cl)ccc1Cl)C(=O)NNC(=O)CCC(=O)O (stereo not drawn),-11.7%
C#CCOCCOCCOCCNc1nc(N2CCN(C(=O)[C@H](CCC(=O)O)n3cc(C(N)[C@H](C)CC)nn3)CC2)nc(N2CCN(C(=O)[C@H](CCC(=O)O)n3cc(C(N)[C@H](C)CC)nn3)CC2)n1 (stereo partly drawn),7.0%
Cc1cc(NC(=O)CSc2nnc(NC(=O)C3CC(=O)N(c4ccccc4)C3)s2)no1 (stereo not drawn),?
O=C(CCn1cnnn1)Nc1ccc(F)cc1,-16.5%&-8.1%
Cc1cc(C)n2c(SCCN3C(=O)c4ccccc4C3=O)nnc2n1,-23.0%
NC1=NC[C@H](c2ccccc2)N1CCc1cc(C(F)(F)F)cc(C(F)(F)F)c1,-14.8%
Cc1ccc(C)c(NC(=S)NNc2ccc(F)cc2F)c1,10µM*
CCc1ccc(C(=O)NCc2ccc(Cl)cc2Cl)cc1,-7.2%
NS(=O)(=O)c1ccc(CCNC(=O)Cc2ccccc2[N+](=O)[O-])cc1,4.6%
COc1ccccc1-c1coc2cc(O)cc(O)c2c1=O,-12.3%
C=CCN(C(=O)c1ccc2snnc2c1)c1ccccc1,21.6%
COCCn1c(SCC(N)=O)nnc1-c1c[nH]c2ccccc12,7.6%
Cn1nc([N+](=O)[O-])nc1Oc1ccccc1F,-25.3%
# The list continues:
SMILES,VDR inhibitor
CN(C(=O)NC1CCCCC1)c1ccccc1,-0.5%
Cc1sc(NC(=O)c2oc3ccccc3c2C)c(C#N)c1C,-14.2%
Cc1ccc(Cl)c2c1NC(=O)C2(O)CC(=O)c1ccccc1O (stereo not drawn),15.4%
NC(=S)N/N=C/c1cccnc1,4.2%
Cc1cc(C)c(OCC(=O)NCCCn2nc(C)cc2C)c(C)c1,10.1%

# Screens deposited in PubChem BioAssay by National Center for Advancing Translational Sciences (NCATS).
